HNF4A DNA FP = change in binding of human HNF4 alpha to DNA; P41235; HNF4a-FITC DNA binding, fluorescence polarization, 1 h; activity change, % at 10 µM; 0.3% of 360,000 active; in the data active = activity change above about 30%, passing the limit was not always enough;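 also: controls were the assay level and a saturating level of protein; the project sought stronger binding though the title names inhibitors; some compounds called inactive have numbers as strong as hits; positive values seem to mean higher polarization but the record does not say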
Target sequence (P41235 whole entry, looked up): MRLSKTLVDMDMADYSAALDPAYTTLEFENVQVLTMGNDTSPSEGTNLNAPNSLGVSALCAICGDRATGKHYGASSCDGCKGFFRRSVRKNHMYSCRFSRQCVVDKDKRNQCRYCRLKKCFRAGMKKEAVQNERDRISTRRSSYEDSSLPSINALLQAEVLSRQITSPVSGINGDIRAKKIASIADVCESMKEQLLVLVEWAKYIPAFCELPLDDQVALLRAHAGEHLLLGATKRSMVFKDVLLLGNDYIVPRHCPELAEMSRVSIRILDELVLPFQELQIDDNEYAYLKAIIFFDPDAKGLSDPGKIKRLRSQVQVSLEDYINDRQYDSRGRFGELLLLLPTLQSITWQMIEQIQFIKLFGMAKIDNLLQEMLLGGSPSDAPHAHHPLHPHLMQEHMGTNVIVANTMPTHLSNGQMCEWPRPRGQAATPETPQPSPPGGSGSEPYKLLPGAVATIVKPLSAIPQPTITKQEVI
LANA-H2A inh = blocks KSHV LANA binding to histone H2A/H2B. Q9QR71. cell-free LANA-H2A/H2B peptide, fluorescence polarization. inhibition, % (no concentration beside the values). 0.6% of 320,000 active. AID 2629; in the data active = inhibition mostly above about 10%, no sharp cut-off; inactive = mostly below about 6.7%;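 also: stock transfer was 7.5 nL into about 10 µL; 0% = median of vehicle wells and 100% = median of positive control wells; one replicate is shown; the record names a cut of 25% in any replicate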
UCH37 inh = inhibitors of human deubiquitinating enzyme UCH37 | Q9Y5K5 | purified proteasome/UCH37, Ub-AMC cleavage fluorescence | inhibition, % (concentration not given with the values) | 0.33% of 330,000 active;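 active = mean of two replicates above 20%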;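 also: 0% = compound-free wells with enzyme and 100% = wells lacking proteasome; stock transfer was 100 nL into about 20 µL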
Target sequence (Q9Y5K5 whole entry, looked up): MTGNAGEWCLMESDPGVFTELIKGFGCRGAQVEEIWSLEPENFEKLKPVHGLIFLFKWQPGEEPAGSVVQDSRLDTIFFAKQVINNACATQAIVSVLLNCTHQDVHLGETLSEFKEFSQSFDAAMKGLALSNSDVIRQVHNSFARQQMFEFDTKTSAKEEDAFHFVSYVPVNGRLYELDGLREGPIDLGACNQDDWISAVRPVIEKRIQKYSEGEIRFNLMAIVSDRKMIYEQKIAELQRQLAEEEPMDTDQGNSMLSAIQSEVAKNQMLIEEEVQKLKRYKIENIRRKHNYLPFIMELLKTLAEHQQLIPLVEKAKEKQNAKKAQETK
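Reagent: Ub-AMC substrate; assay system: Proteasome-associated human UCH37 deubiquitinase; controls: no-proteasome and no-compound wells; read-out: % inhibition of Ub-AMC cleavage fluorescence; timing: 30 min preincubation with enzyme, 25 min cleavage at room temperature; signal: AMC fluorescence from Ub-AMC cleavage, excitation 355 nm, emission 460 nm; buffer or medium: Tris-HCl pH 7.4 plus ovalbumin, ATP-MgCl2, DTT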
Beta2AR agonist = activates human beta-2 adrenergic receptor causing internalization; P07550; Am2.2-beta2AR cells, FAP receptor internalization, flow cytometry; reference of the scale not given here; response, % (no concentration beside the values); 0.43% of 340,000 active;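 active = response above a set limit, near 3 SD of response in nonfluorescent compounds, cut at about 42% in these data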;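 also: stock transfer was 100 nL into about 11 µL; a reference agonist was the positive control; negative values mostly stem from fluorescent compounds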
E coli growth = E. coli growth inhibition; Escherichia coli growth, OD600, 23 h; hits give low values; 0.21% of 330,000 active; OD600 absorbance (no concentration beside the values);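 active = OD600 absorbance below the run mean of sample wells minus 3.6 SD, in any replicate, cut at about 0.56 in these data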;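 also: stock transfer was 300 nL into about 60 µL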
Vif TR-FRET = HIV-1 Vif–A3G interaction blockers – biochemical, TR-FRET, GST-Vif 1-94, biotin-A3G peptide, dose response retest, primary screen (AID 1117319) | TR-FRET GST-Vif / biotin-A3G peptide binding; higher % means a stronger effect; test concentration not given here; strong numbers were not always called active | inhibition, %; hits with a dose series show IC50 in µM | 0.57% of 260,000 active;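 active = above the screen mean plus three standard deviations and confirmed in dose response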;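 also: Vif residues 1-94 fused to GST binding biotinylated APOBEC3G peptide 110-148; 0% = full assay without inhibitor and 100% = GST in place of GST-Vif; retest series ran down from 100 µM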
Bfl-1 A1 inh = inhibitors of the anti-apoptotic protein A1, read as caspase activation | MEF A1-2A-BIM cells, Caspase-Glo 3/7 luminescence, 3 h; percent of clofoctol response, vehicle zero | caspase activation, % (concentration not given with the values) | 0.066% of 330,000 active | AID 2462;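 active = over half of replicate activation scores above 10%, or exactly half above 10 with the replicate mean above 10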;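 also: wells of about 30 µL received 50 nL stock; many hits fall short of the cut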
An asterisk follows results filed as active; · = not tested or not shown.

SMILES	HNF4A DNA FP	LANA-H2A inh	UCH37 inh	Beta2AR agonist	E coli growth	Vif TR-FRET	Bfl-1 A1 inh
Cc1noc(C)c1COc1ccc(CC(=O)NCCc2ccccc2)cc1	0.1	0.4	0.3	-5.1	0.622	8.7%	0.3
CCCN(C(=O)COC(=O)CCOc1ccccc1C)c1c(N)n(Cc2ccccc2)c(=O)[nH]c1=O	0.2	-1.8	1.2	5.3	0.725	·	-0.4
CCc1ccccc1NC(=O)c1cc([N+](=O)[O-])ccc1N1CCOCC1	11.3	0.8	2.8	10.5	0.719	·	-0.5
COc1cccc2[nH]c(C(=O)NCc3ccccc3)cc12	1.0	2.3	-15.9	-3.0	0.676	-4.3%	0.9
COC(=O)c1sc(-c2ccc(C(C)(C)C)cc2)cc1NC(=O)COCC(=O)O	-0.2	1.5	-29.9	8.7	0.7	-22.4%	-0.2
CC(=O)Nc1ccccc1C(=O)C(=O)Nc1cccc(C(=O)NCc2ccccc2)c1	-2.9	6.8	1.5	3.7	0.676	·	0.1
CC(CNS(=O)(=O)c1ccc2c(c1)CC(=O)N2C)c1ccccc1 (stereo unspecified)	1.0	-3.9	1.6	-15.1	0.671	·	0.2
CCC(=O)N(Cc1cc(=O)[nH]c2ccccc12)c1ccccc1OC	0.7	6.2	5.4	-3.9	0.689	-7.1%	0.8
COc1ccc(C2=NOC(Cn3nc(C(=O)NCc4ccc(C)cc4)cc3-c3ccccc3)C2)cc1 (stereo unspecified)	-1.1	-6.1	4.7	8.3	0.706	·	-0.2
Cc1cc(C)c(S(=O)(=O)Nc2ncn[nH]2)c(C)c1	-1.4	-1.3	5.5	1.7	0.646	·	-0.1
O=C(NCC(NS(=O)(=O)OCC(Cl)(Cl)Cl)c1ccccc1)C(F)(F)F (stereo unspecified)	0.6	-2.6	-1.0	-2.6	0.663	·	-0.7
CN(Cc1c(C(=O)N(C)Cc2ccccc2)nc2ccccn12)CC1Cc2ccccc2O1 (stereo unspecified)	-0.9	6.9	2.4	2.6	0.698	-9.7%	-0.3
O=C(Nc1ccccc1)OC1CC2CC1C1CCCC21 (stereo unspecified)	-3.4	0.5	2.3	-1.1	0.632	6.4%	-1.3
CCOC(=O)C1CCN(C(=O)COc2cccc3ccccc23)CC1	-2.2	3.5	4.3	7.8	0.682	·	-1.2
CCN(CC)C(=O)N1CCN(S(=O)(=O)c2ccc(C)cc2)CC1	2.5	0.8	1.1	0.0	0.732	-2.8%	2.5

Filtered by structure, the compounds so far with an aryl methoxy group.
SMILES	HNF4A DNA FP	LANA-H2A inh	UCH37 inh	Beta2AR agonist	E coli growth	Vif TR-FRET	Bfl-1 A1 inh
COc1cccc2[nH]c(C(=O)NCc3ccccc3)cc12	1.0	2.3	-15.9	-3.0	0.676	-4.3%	0.9
CCC(=O)N(Cc1cc(=O)[nH]c2ccccc12)c1ccccc1OC	0.7	6.2	5.4	-3.9	0.689	-7.1%	0.8
COc1ccc(C2=NOC(Cn3nc(C(=O)NCc4ccc(C)cc4)cc3-c3ccccc3)C2)cc1 (stereo unspecified)	-1.1	-6.1	4.7	8.3	0.706	·	-0.2

Further compounds.
SMILES	HNF4A DNA FP	LANA-H2A inh	UCH37 inh	Beta2AR agonist	E coli growth	Vif TR-FRET	Bfl-1 A1 inh
COc1ccc(C(=O)OCCCOC(=O)c2ccc(OC)cc2OC)c(OC)c1	-2.4	-2.0	-0.1	-5.9	0.703	·	0.3
CC(NC(=O)c1cc2cc(Br)ccc2oc1=N)c1ccccc1 (stereo unspecified)	-4.6	4.1	3.6	19.5	0.694	·	0.3
CN(Cc1cccc(Cl)c1)C(=O)C1CCC(=O)N(C2CC2)C1 (stereo unspecified)	-1.8	7.2	6.0	1.4	0.69	·	0.9
C=CCn1c(SCc2c(F)cccc2Cl)nnc1-c1ccco1	-0.3	0.4	2.8	-0.1	0.673	14.2%	-0.4
CCn1c(CC(=O)Nc2ccccc2)nnc1SCC(=O)Nc1nncs1	-1.2	-3.0	-0.3	0.1	0.697	-7.4%	0.1
COc1ccc(C(=O)N2CCc3ccccc32)cc1S(=O)(=O)N1CCOCC1	2.1	-2.1	0.1	-11.5	0.708	·	-0.2
CCOC(=O)Cc1csc(NC(=O)COc2ccc3c(C)cc(=O)oc3c2)n1	-2.8	-3.3	-26.4	1.0	0.612	·	-1.2
c1cc2c(cc1CN1CCOCC1)OCO2	-1.9	0.9	0.2	1.4	0.66	11.3%	0.6
O=C(COc1cccc(Oc2ccccc2)c1)Nc1ncccn1	-0.1	-2.6	1.7	-11.5	0.721	10.6%	-0.7
Cn1c(SCC(=O)N2CCN(C(=O)c3ccco3)CC2)nnc1-c1ccc(NS(C)(=O)=O)cc1	0.1	5.8	0.7	4.6	0.669	-1.1%	0.1
O=Nc1c(O)ccc2cc(S(=O)(=O)O)ccc12	-9.8	·	9.2	-4.7	0.706	24.3%	·
COc1ccc(-n2nnnc2SCC(=O)NC2CC2)cc1	5.2	-2.7	2.6	-14.6	0.682	·	-2.5
N#Cc1ccc(N2C(=O)[C@@H]3C(C(=O)c4ccc5ccccc5n4)=NN[C@@H]3C2=O)cc1	1.7	-0.7	·	3.2	·	11.7%	0.7
CCC(=O)N1CCN(C(=O)c2ccccc2)CC1	2.6	-2.7	-0.5	0.7	0.698	·	0.2
CCOC(=O)C1CCCN(C(=O)c2ccccc2NC(C)=O)C1 (stereo unspecified)	3.1	1.5	1.8	0.7	0.677	-2.2%	0.2

Ordered by number of heavy atoms (lowest first): some entries from above.
SMILES	HNF4A DNA FP	LANA-H2A inh	UCH37 inh	Beta2AR agonist	E coli growth	Vif TR-FRET	Bfl-1 A1 inh
c1cc2c(cc1CN1CCOCC1)OCO2	-1.9	0.9	0.2	1.4	0.66	11.3%	0.6
CC(NC(=O)c1cc2cc(Br)ccc2oc1=N)c1ccccc1 (stereo unspecified)	-4.6	4.1	3.6	19.5	0.694	·	0.3
Cn1c(SCC(=O)N2CCN(C(=O)c3ccco3)CC2)nnc1-c1ccc(NS(C)(=O)=O)cc1	0.1	5.8	0.7	4.6	0.669	-1.1%	0.1

The main list resumes; the 4 compounds before the break are reprinted first.
SMILES	HNF4A DNA FP	LANA-H2A inh	UCH37 inh	Beta2AR agonist	E coli growth	Vif TR-FRET	Bfl-1 A1 inh
COc1ccc(-n2nnnc2SCC(=O)NC2CC2)cc1	5.2	-2.7	2.6	-14.6	0.682	·	-2.5
N#Cc1ccc(N2C(=O)[C@@H]3C(C(=O)c4ccc5ccccc5n4)=NN[C@@H]3C2=O)cc1	1.7	-0.7	·	3.2	·	11.7%	0.7
CCC(=O)N1CCN(C(=O)c2ccccc2)CC1	2.6	-2.7	-0.5	0.7	0.698	·	0.2
CCOC(=O)C1CCCN(C(=O)c2ccccc2NC(C)=O)C1 (stereo unspecified)	3.1	1.5	1.8	0.7	0.677	-2.2%	0.2
C(=N\Nc1nc(Nc2ccccc2)nc(Nc2ccccc2)n1)/c1ccncc1	2.7	-4.2	·	1.4	·	-3.8%	-0.4
COc1ccc(NC(C)=O)cc1S(=O)(=O)Nc1ccc(S(=O)(=O)N2CCCCC2)cc1	-0.9	-1.4	-0.1	-0.7	0.667	-4.3%	-0.2
COCCCN1CC(=O)N2C(c3cccc(OC)c3)c3[nH]c4ccccc4c3C[C@H]2C1=O (stereo partly specified)	-4.6	-0.5	5.8	6.0	0.636	-0.4%	0.4
O=C(CSc1ccccc1C(=O)NCc1ccccc1)NC12CC3CC(CC(C3)C1)C2	-1.4	-1.3	3.2	1.8	0.669	·	-0.7

High-throughput results deposited in PubChem BioAssay by several laboratories.
